HPGD inh = blocks human HPGD enzyme activity. P15428. purified HPGD, NADH fluorescence kinetic, PGE2 substrate. Potency, µM, for the others: at the top dose activity change, negative = inhibition, hits mostly inhibitors. 4.3% of 150,000 active. AID 894; active = well fitted inhibition curve with a large enough effect (not every such curve was filed as active); inconclusive = small, poorly fitted or top-dose-only effect, or another doubt; inactive = no such curve, though single readings can be large or run the other way;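 note: top concentration of the series not given in the record; plate controls included wells without enzyme; inactives centre near -10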
Target sequence (P15428 whole entry, looked up): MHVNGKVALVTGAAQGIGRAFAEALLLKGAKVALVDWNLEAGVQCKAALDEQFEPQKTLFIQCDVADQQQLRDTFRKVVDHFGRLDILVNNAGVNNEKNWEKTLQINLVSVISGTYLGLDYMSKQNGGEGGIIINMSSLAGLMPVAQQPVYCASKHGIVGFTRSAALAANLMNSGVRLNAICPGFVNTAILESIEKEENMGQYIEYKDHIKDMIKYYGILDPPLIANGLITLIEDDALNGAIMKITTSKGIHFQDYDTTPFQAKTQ
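NADH formation kinetics: reaction with 30 uM PGE2 and 1 mM NAD+ (final), 20 nM enzyme, Tris-HCl pH 8 with Tween 20, after 15 min compound preincubation at room temperature. Fluorescence change, last versus first of five reads.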
The depositor's hits bear a star; ? = inconclusive. % is set by controls: 0 for no effect and ±100 for the full control effect; potency is the fitted concentration of half-maximal effect. This is a subset, so the mix of outcomes need not match the whole.

SMILES,HPGD inh
Cc1nn(Cc2ccccc2)c(C)c1NC(=O)CCCn1nc(C)c([N+](=O)[O-])c1C,-13%
O=C(Cn1nnc(-c2ccc(Cl)cc2)n1)NCCC1=CCCCC1,-1%
Cn1c(=O)c2c(nc(CN3CCOCC3)n2CC(O)CO)n(C)c1=O (configuration not stated),0%
CCOC(=O)c1cnc2c(C)c(-c3ccccc3)[nH]n2c1=O,-24%
CCOC(=O)CN(C(=O)CSc1nnc2c(n1)[nH]c1ccc(OC)cc12)c1ccc(F)cc1,-14%
COc1ccc(S(=O)(=O)NC(C(C)C)C(C)C)cc1OC,-17%
CS(=O)(=O)c1ccc2nc(NC(=O)CC3CCCC3)sc2c1,-17%
CC1CC[C@@]2(C(=O)O)CCC3(C)C(=CCC4[C@]5(C)CC(O)C(O)[C@](C)(CO)C5C(O)C[C@@]43C)C2C1C (some centres not stated),-11%
CC1=C(C)C(=O)N(CCC(=O)O)C1=O,-7%
CCCn1c(SCC(=O)N2c3ccccc3Sc3ccccc32)nc2ccccc21,-3%
COc1ccccc1N1C(=O)C2C(c3ccccc3F)NN(C(=O)c3ccc(C)cc3)C2C1=O (configuration not stated),?
CCCC(=O)NC(=S)Nc1cccc(NC(=O)c2ccccc2Cl)c1,-18%
COc1cc(OC)cc(C(=O)NCC(=O)OCC(=O)NC(C)(C)C)c1,-16%
COc1ccc(NC(C)=O)c2nc(C)c(C)nc12,-13%
O=C(NCc1ccco1)Nc1ccccc1Cl,?
CC(C(=O)Nc1cccnc1)N1C(=O)c2ccccc2C1=O (configuration not stated),0%
COc1ccc(-c2cnnn2-c2ccc(N)cc2)cc1OC,-6%
COc1ccc(S(=O)(=O)NCC(c2cccnc2)N2CCN(C)CC2)cc1C (configuration not stated),-2%
COC(=O)c1ccc(C(=O)NC(=S)Nc2ccc3nc(SC)sc3c2)cc1,-14%
N#CCCN(Cc1ccccc1)C(=S)Nc1ccccc1,-14%
NCCCCCc1nnc(SCc2cccc(Cl)c2)o1,1%
COCCn1cc(C(=O)NCCCN2CCC(C)CC2)c2c3ccccc3n(C)c2c1=O,?
O=C(CCSCCC(=O)Nc1ccccc1F)Nc1ccccc1F,-19%
COc1ccc(OC)c(C2C3=C(CC(C)(C)CC3=O)Nc3nnnn32)c1 (configuration not stated),-13%
COc1ccccc1/C=C/C(=O)OCC(=O)NNC(=O)c1ccccc1,?

The listing continues.
SMILES,HPGD inh
CCC(C)C(=O)Nc1nc(C)c(-c2csc(Nc3cc(Cl)ccc3OC)n2)s1 (configuration not stated),?
CCOC(=O)c1c(NC(=O)CSc2nc3ccccc3o2)sc(C)c1C,-13%
CC(=O)Nc1ccc(S(=O)(=O)Nc2cccc(-c3nc4ccccc4o3)c2)cc1,?
CS(=O)(=O)N1CCN(c2ccccc2NC(=O)CSc2ccc(Cl)cc2)CC1,-15%
O=C(Nc1ccc2c(c1)OCCO2)C1CC1c1ccccc1 (configuration not stated),-6%
Cc1cccc(NC(=O)c2nc(-c3ccccc3)n(-c3ccccc3)n2)c1C,-29%
O=C(c1ccc(Br)o1)N1CCN(Cc2ccc3c(c2)OCO3)CC1,-4%
CC(C)CN(Cc1c(O)ccc2c3c(c(=O)oc12)CCC3)CC(C)C,?
Cc1cc(C)c2nc(Cl)c(CN(Cc3ccco3)C(=O)Nc3ccccc3C)cc2c1,?
Cn1cnnc1SCc1cccc(Br)c1,-12%
Cc1ccc(S(=O)(=O)N2CCN(C(=O)C3COc4ccccc4O3)CC2)cc1C (configuration not stated),-9%
CN(C(=O)c1ccc2c(c1)C(=O)N(CCC1=CCCCC1)C2=O)C1CCCCC1,14µM*
O=C(OCCNc1ncc(C(F)(F)F)cc1Cl)c1ccc(S(=O)(=O)N2CCOCC2)cc1,-19%
CC(=O)Oc1ccc2c(c1)cc(C)n2C,-13%
CC(=O)OC[C@H]1O[C@@H](n2ccc(=O)[nH]c2=S)C(OC(C)=O)C1OC(C)=O (some centres not stated),-17%
CCOc1ccccc1NC(=O)CN(c1cc(C)cc(C)c1)S(=O)(=O)c1c(C)noc1C,-9%
CCn1c(SCc2ccc(Cl)cc2)nc2nc3c(cc2c1=O)CCCC3,-25%
Cc1[nH]c(=O)cc2ccccc12,-27%
CC1=C(C(=O)Nc2ccccc2C)C(c2cccs2)NC(=S)N1 (configuration not stated),-14%
CCc1ccccc1NC1=NCC(=O)N1Cc1ccccc1,1%
O=C(NCCOc1ccc(F)cc1)c1ccccc1SCc1ccccc1,-10%
COC(=O)CCCC1=CC2=C(c3ccccc3)C(=O)C(C)(OC(=O)C3CCCC3)C(=O)C2=CN1CC1CC1 (configuration not stated),-9%
COc1ccc(OC)c(/C=C/C(=O)OCC(=O)Nc2cccc(C(C)=O)c2)c1,?
C=CCN1C(=O)C(Cc2ccc(F)cc2)S/C1=N/N=C/c1ccco1 (configuration not stated),-5%
COc1ccccc1N1CCN(C(=O)C2CCN(S(=O)(=O)c3ccccc3)CC2)CC1,-2%

The listing continues.
SMILES,HPGD inh
Cc1ccccc1-n1c(SCC(=O)NC(N)=O)nc2sc(-c3ccccc3)cc2c1=O,?
O=C(COC(=O)c1cccs1)NCCN1C(=O)CSC1=O,-9%
N#Cc1c2n(c3c(=O)n(Cc4ccc(Cl)cc4)cnc13)CCCCC2,?
COc1cc(C)c(NC(=S)Nc2ccc(C)c(Cl)c2)cc1OC,-13%
CCCN1CCCc2cc(CN(CCCN3CCOCC3)C(=O)Nc3ccc(OCC)cc3)ccc21,-15%
CC(C)C[C@@H](CC(=O)N[C@@H](CCC(=O)O)CC(=O)O)NC(=O)[C@@H]1CCCC[C@H]1NC(=O)C[C@@H](NC(=O)C[C@H](Cc1ccccc1)NC(=O)[C@@H]1CCCC[C@H]1N)C(C)C,-5%
CCCCN(C(=O)c1cccc2c(=O)c(C)c(-c3ccccc3)oc12)c1ccccc1,-21%
Cc1nn2c(NCCCN(C)C)c3c(nc2c1-c1ccccc1)CCC3,-4%
Nc1nnc(CSCc2ccc(F)cc2)s1,22µM*
CCOC(=O)C1=C(N)N2C(=O)C(C)SC2=C(C(=O)OCC)C1c1ccccc1 (configuration not stated),?
O=C(NC(C(=O)N1CCCC1C(=O)O)=C1CCCCC1)c1ccccc1 (configuration not stated),-12%
Cc1ccc2[nH]c(=O)c(CNC(C)(C)C)cc2c1,?
COc1cc(OC)cc(-c2nc3cc(C)ccc3o2)c1,?
O=C(Nc1ccc(F)cc1)N1CCN(C/C=C/c2ccccc2)CC1,-1%
COC(=O)C1CCN(C(=O)c2sc3nc(-c4ccccc4)cn3c2C)CC1,-9%
Cc1ccc(OCCCCN2CCCCC2)c(Br)c1,-1%
Cc1nc2ccccc2c2nc3ccccc3n12,-27%
Cc1cc(C(=O)OCC(=O)N2CCCC2)c2ccccc2n1,-6%
Cc1cc(Cl)c(OCCCCNC(C)(C)C)c(Br)c1,-1%
CCCC(=O)Nc1nc2nc(C)cc(=O)n2[nH]1,-4%
Cc1ccc(OCC(=O)Nc2cccc3nsnc23)c(C)c1,?
CC(C)c1ccc(/C=N/NC(=O)c2c(Cl)cnn2C)cc1,-6%
Cc1cc2c(ncn2Cc2ccccc2)c([N+](=O)[O-])c1C,20µM*
CC1CN(Cc2ccccc2)c2nc3c(c(=O)n(C)c(=O)n3C)n2C1 (configuration not stated),3%
Cc1cccc(C(=O)O)c1NC(=O)c1ccc(F)cc1,-13%

The list goes on.
| Molecule | HPGD inh |
| --- | --- |
| CN(C)CN1CSC(=S)N(CN(C)C)C1 | 3.2µM* |
| Cc1cnc(NC(=O)C2CCCO2)s1 (configuration not stated) | -3% |
| O=C(Nc1nc(-c2ccco2)c(-c2ccco2)s1)C1CCC1 | -17% |
| CN(C)c1cccc(C(=O)OCC(=O)NCc2ccco2)c1 | -22% |
| CN1CCC(OC(=O)COc2ccc(C(C)(C)C)cc2)CC1 | -3% |
| O=C(c1sc2cc(F)ccc2c1Cl)N1CCN(c2ccccc2)CC1 | -21% |
| COc1ccc(C2C3=C(CCCC3=O)Nc3nc(-c4cc(OC)c(OC)c(OC)c4)nn32)cc1OC (configuration not stated) | ? |
| COc1ccc(N(Cc2cc3cccc(C)c3[nH]c2=O)S(C)(=O)=O)cc1 | -12% |
| CCC(C(=O)OC)n1cnc2c(nnn2-c2cccc(Cl)c2)c1=O (configuration not stated) | 20µM* |
| COC(=O)c1ccc(CNC(=O)CSc2nc3sc(C)c(C)c3c(=O)n2C)o1 | -3% |
| COCCNC(=O)c1ccccc1NC(=O)c1ccccc1N(C)S(C)(=O)=O | -3% |
| COc1cc(OC)c(C2SCCCS2)cc1OC | -22% |
| Cc1ccc(-n2nc3c([n+]2[O-])CCc2c-3no[n+]2[O-])cc1 | -9% |
| O=C(O)COc1ccc2occ(C(=O)c3ccccc3)c2c1 | -9% |
| CCCCC(=O)Nc1ccc(C(=O)Nc2cccnc2)cc1 | -3% |

(listing goes on)
| Molecule | HPGD inh |
| --- | --- |
| CC1(C)N=C2C(=[N+]1[O-])CCC/C2=N\O | -4% |
| O=C(N/N=C/c1ccccc1F)c1csc2c1CCCC2 | -25% |
| CC(=O)c1cccc(NS(=O)(=O)c2cccc(C(=O)O)c2)c1 | -9% |
| O=C(CS(=O)(=O)c1cn(Cc2cccc(F)c2)c2ccccc12)N1CCCCC1 | -18% |
| COc1ccc(/C=N/Nc2ccc([N+](=O)[O-])cc2S(=O)(=O)N2CCN(C)CC2)cc1 | -10% |
| FC(F)(F)c1nc2ccccc2n2c(-c3ccc(Cl)cc3Cl)nnc12 | -28% |
| CCC(=O)Nc1ccc(S(=O)(=O)N2CCc3ccccc3C2)cc1 | -11% |
| COc1cc(/C=C(\C#N)c2nc3ccccc3[nH]2)ccc1Oc1ccc([N+](=O)[O-])cn1 | -10% |
| COC(CNC(=O)CCc1c(C)nc2c(-c3ccc(F)cc3)c(C)nn2c1C)OC | -2% |
| NC(=O)Cc1c[nH]c2cccc(O)c12 | -10% |
| Cc1ccc(C)n1-c1ccc(C(=O)NN)cc1 | -14% |
| COc1ccc(N(CC(=O)Nc2cccc(SC)c2)S(C)(=O)=O)cc1 | -3% |
| Cc1cc(C)c2nc(Nc3nc(C)cc(=O)[nH]3)nc(C)c2c1 | 2% |
| CCOC(=O)N1CCN(CC(O)COCC2=CCC3CC2C3(C)C)CC1 (configuration not stated) | -14% |
| Cc1ccc(C(=O)Nc2ccc(CC(=O)O)cc2)o1 | -1% |

Gathered by group, those above with a furan ring, fused or not.
| Molecule | HPGD inh |
| --- | --- |
| O=C(NCc1ccco1)Nc1ccccc1Cl | ? |
| O=C(c1ccc(Br)o1)N1CCN(Cc2ccc3c(c2)OCO3)CC1 | -4% |
| Cc1cc(C)c2nc(Cl)c(CN(Cc3ccco3)C(=O)Nc3ccccc3C)cc2c1 | ? |
| C=CCN1C(=O)C(Cc2ccc(F)cc2)S/C1=N/N=C/c1ccco1 (configuration not stated) | -5% |
| O=C(Nc1nc(-c2ccco2)c(-c2ccco2)s1)C1CCC1 | -17% |
| CN(C)c1cccc(C(=O)OCC(=O)NCc2ccco2)c1 | -22% |
| COC(=O)c1ccc(CNC(=O)CSc2nc3sc(C)c(C)c3c(=O)n2C)o1 | -3% |
| O=C(O)COc1ccc2occ(C(=O)c3ccccc3)c2c1 | -9% |
| Cc1ccc(C(=O)Nc2ccc(CC(=O)O)cc2)o1 | -1% |

2 entries from above in another layout.
molecule: O=C(N/N=C/c1ccccc1F)c1csc2c1CCCC2
  HPGD inh: -25%
molecule: NC(=O)Cc1c[nH]c2cccc(O)c12
  HPGD inh: -10%

Going on with the list:
| Molecule | HPGD inh |
| --- | --- |
| O=C1C2CC=C(Cl)CC2C(=O)N1CCc1ccccc1 (configuration not stated) | -12% |
| Cc1ccc2c(c1)N(CC(=O)N1CCc3ccccc3C1)C(=O)CO2 | -7% |
| O=C(NCc1ccccc1F)C1CCCN1C(=O)NC1CCCCC1 (configuration not stated) | -1% |
| O=C(NC(NC(=S)Nc1cccc(Cl)c1)C(Cl)(Cl)Cl)OCc1ccccc1 (configuration not stated) | -10% |
| COCCn1c(C)cc(C(=O)CSc2nnc3ccccn23)c1C | -8% |
| COc1cc2[nH]c(=S)n(N(C(C)=O)C(C)=O)c(=O)c2cc1OC | -9% |
| CCOC(=O)c1sc(=S)n(C)c1NC(=O)c1ccccc1C | 10µM* |
| CCn1nccc1C(=O)Nc1ccc(Cl)c(Cl)c1 | -16% |
| COc1ccc(OC)c(N2Cc3ccccc3C2)c1 | -18% |
| O=[N+]([O-])c1ccc(O)c(/C=N/Nc2nc3ccccc3[nH]2)c1 | -17% |
| COc1ccccc1CNC(=O)C1CCCN1S(=O)(=O)c1cccc2cccnc12 (configuration not stated) | 22µM* |
| C/C(=N\NC(=O)c1ccc(C)cc1C)c1ccc2c(c1)OCO2 | -17% |
| CCCNS(=O)(=O)c1ccc(CCC(=O)N2CCC(C)CC2)cc1 | -8% |
| N#Cc1ccc(-c2csc(NC3=NCCCCC3)n2)cc1 | -27% |
| O=C(Cn1[nH]c(=O)c2ccccc2c1=O)Nc1ccc2c(c1)CCC2 | -13% |

(list continues)
| Molecule | HPGD inh |
| --- | --- |
| O=C(CN1CCN(Cc2cccc(Cl)c2)C1=O)NCc1ccccn1 | -10% |
| CC1C(=O)NN=C1C(=O)N/N=C\c1ccc(O)cc1O (configuration not stated) | -9% |
| NC(=O)C1(NC(=O)[C@@H]2CC3(CC(c4cccc(NC(=O)[C@@H]5CCC(=O)N5)c4)=NO3)CN2C(=O)c2cnccn2)CC1 (some centres not stated) | -13% |
| c1coc(CNc2c3c(nc4ncnn24)CCCC3)c1 | -20% |
| CN(c1ccc(OCC(=O)OCC(=O)Nc2ccccc2)cc1)S(=O)(=O)c1ccc(F)cc1 | -5% |
| CCCC(NC(=O)CNC(=O)C(C)(C)C)C(=O)O (configuration not stated) | -16% |
| Cc1ccc(/C=C2\SC(=S)N(CCCC(=O)Nc3nccs3)C2=O)cc1 | -12% |
| C=CCNC(=S)N/N=C/c1ccc(C)c([N+](=O)[O-])c1 | -12% |
| COC(=O)Cc1c(C)nc2nc(-c3ccc(OC)cc3)[nH]n2c1=O | ? |
| CC(C)=CC(=O)OCC(=O)Nc1ccc(F)cc1Cl | -17% |

Screens from PubChem.
